DT40 TDP1 CPT = growth inhibition of DT40 Tdp1-/-;hTDP1 cells with camptothecin (screen for TDP1 inhibitors); chicken DT40 Tdp1-/-;hTDP1 cells + 20 nM CPT, ATP luminescence, 48 h; Potency, µM (titrated, usually from 46.2 µM), for inactives: at the highest dose activity change, negative = growth inhibition, most hits filed as inhibitors; 420,000 tested, 12% active; AID 686979; further: nearly all actives have a fitted effect of over 55% in size
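Chicken DT40 Tdp1-/- cells complemented with human TDP1, 400 cells/well, exposed to compounds plus 20 nM camptothecin for at least 48 h at 37 C; viability read as ATP content by CellTiter-Glo luminescence.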
N370S GC = N370S glucocerebrosidase modulation, Gaucher chaperone candidate; P04062; Potency, µM (titrated, usually from 59.4 µM), for inactives: at the top dose activity change, negative = inhibition, actives largely listed as inhibitors; N370S GC spleen homogenate, 4MU-glucoside fluorescence; 330,000 tested, 0.092% active;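 further: 0% = full enzyme activity and -100% = no enzyme basal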
Numbers without * were called inactive; ? = inconclusive; . = not tested or not shown; [ ] = another dose, or the depositor's remark. The call rests on the fitted dose curve; in most records, active means well fitted curve in the direction sought with a large enough effect; inconclusive means small, poorly fitted or top-dose-only effect, or another doubt; inactive means no such curve, though single readings can be large; an effect the other way counts as inactive or inconclusive. Unless noted, on the % scale 0 is the no-effect control and ±100 the full control effect; potency means the concentration at half of the fitted maximal effect. A portion of the library; most or all hits stand in other tables.

SMILES | DT40 TDP1 CPT | N370S GC
COC(=O)c1ccc(/C=N/OCC(=O)Nc2cc(F)ccc2F)cc1 | 11.8% | 2.7%
C=CCSc1ncnc2c1oc1nc3c(cc12)COC(C)(C)C3 | -20.3% | -7.8%
CSc1nnc2c(n1)OC(c1ccccn1)N(C(C)=O)c1ccccc1-2 (stereo not given) | 11.7% | -5.9%
CCn1c(SCC(N)=O)nc2ccccc2c1=O | -7.1% | -1.4%
Nn1c(=O)c2ccccc2n2c(SCc3ccc(C(F)(F)F)cc3)nnc12 | -12.6% | .
Cc1c(NC(=O)COC(=O)c2ccc(Br)o2)c(=O)n(-c2ccccc2)n1C | -16.1% | -2.1%
Cc1ccc(Nc2nnc(SCc3nc4ccccc4c(=O)[nH]3)s2)cc1 | -28.7% | 9.2%
Cc1sc(NC(=O)c2cc(-c3ccccc3)nc3ccccc23)c(C(N)=O)c1C | 14.6µM* | 1.7%
COc1ccc(/C=C(\C#N)C(=O)c2c(C)[nH]c3ccccc23)cc1OC | ? | 7.2%
O=c1c2cc(Cl)ccc2nc(-c2ccccc2Cl)n1O | 21.7% | 5.6%
CCCC[C@@H]1CNC(=O)C(=O)N1CCc1cc(C(F)(F)F)cc(C(F)(F)F)c1 | -29.0% | -4.0%
CCOC(=O)/C=C/[C@H]1Cc2ccccc2CO1 | -6.7% | .
COC(=O)c1ccc(NC(=O)C[n+]2ccccc2)cc1 | 34.9%[activator] | 2.4%
O=C(NCCc1ccc(Cl)cc1)c1cnccn1 | 1.4% | -1.2%
O=C(N/N=C/c1ccc([N+](=O)[O-])cc1)c1cnccn1 | 16.6% | -6.2%
c1ccc2c3n(nc2c1)CCCCO3 | 7.9% | .
CC(=O)Nc1ccc(-n2c(C)ccc2-c2ccccc2)cc1 | -6.3% | -1.1%
Cc1ccc(N(Cc2ccc(C(=O)NCCSc3ccccn3)cc2)S(C)(=O)=O)cc1C | ? | -4.8%
Cn1c(=O)oc2cc(S(=O)(=O)NCCC(=O)NCCc3ccccc3)ccc21 | 3.0% | 1.0%
CC(C)CCC(CC(C)O)C(=O)NNC(=S)Nc1ccccc1 (stereo not given) | 9.1% | -0.3%
CC1CCCN(CCCNC(=O)c2nn(C)c3c2CS(=O)(=O)c2ccccc2-3)C1 (stereo not given) | -1.8% | 22.8%
CCc1nn(CC(=O)NCCCN2CCOCC2)c(=O)c2cc3sccc3n12 | -14.4% | -10.7%
N=C1C(=O)OCC1c1cc(Cl)ccc1NC(=O)Nc1ccccc1 (stereo not given) | ? | 3.6%
CC1CC(C)CN(CCCNC(=O)c2csc3c2CCCCC3)C1 (stereo not given) | -30.0% | -4.9%
COc1ccc(C2=C(SC)CC2=NC(C)(C)C)cc1 | -2.3% | -1.0%

Exported field by field: part of the list above
COC(=O)c1ccc(/C=N/OCC(=O)Nc2cc(F)ccc2F)cc1
  DT40 TDP1 CPT: 11.8% | N370S GC: 2.7%

c1ccc2c3n(nc2c1)CCCCO3
  DT40 TDP1 CPT: 7.9% | N370S GC: .

O=C(N/N=C/c1ccc([N+](=O)[O-])cc1)c1cnccn1
  DT40 TDP1 CPT: 16.6% | N370S GC: -6.2%

Later entries
SMILES | DT40 TDP1 CPT | N370S GC
COc1ccc(-c2csc3ncn(-c4ccccc4)c(=O)c23)cc1OC | -1.9% | 4.1%
Cc1ccsc1C(=O)NNC(=O)COc1ccccc1Cl | -4.6% | -2.4%
O=C(CCC1CCN(C(=O)c2ccco2)CC1)NCc1ccc(F)cc1 | -6.0% | -6.5%
COc1cccc(CNC(=O)CCS(=O)(=O)c2cc3c(cc2C)NC(=O)CO3)c1 | 5.6% | -4.3%
COc1ccc(C2OCC3(CO2)SC(=O)NC3=O)cc1OC (stereo not given) | 15.1% | 8.5%
COC(=O)[C@@H]1C[C@H]1[C@@H](NC(=O)c1cnccn1)c1ccccc1 | . | -1.3%
C=CCSc1nnc(NC(=O)c2ccc(Cl)nc2)s1 | -8.2% | 27.4%
Cn1c(=O)n(C)c2cc(/C=C3/SC(=O)N(CC(=O)N4CCOCC4)C3=O)ccc21 | 2.8% | -12.1%
CCOC(=O)C1=C(O)/C(=C/c2cc(OC)c(OC)c(OC)c2)N=C1C | -1.2% | -4.3%
COc1ccc(NC(=O)c2ccc(S(=O)(=O)N3CCCCCC3)cc2)c(OC)c1 | -27.0% | -3.0%
Cc1ccc(C)c(NC(=O)Cn2cc(C(=O)C3CC3)c3ccccc32)c1 | ? | -10.2%
NS(=O)(=O)c1ccc(Cl)cc1[N+](=O)[O-] | -23.3% | 21.5%
Cn1c(N)c(C(=O)N/N=C/c2ccccc2)sc1=S | 9.9% | -0.3%
Cc1ccc(C(c2c(C)[nH][nH]c2=O)c2c(C)[nH][nH]c2=O)cc1[N+](=O)[O-] | 0.3% | -15.1%
CCOc1ccc(C(=O)C(C)OC(=O)Cn2c(C)csc2=O)cc1 (stereo not given) | -2.7% | -8.1%
C=CCOc1ccc(C2/C(=C(\O)c3ccc4c(c3)OCCO4)C(=O)C(=O)N2CCCN2CCOCC2)cc1 (stereo not given) | -23.3% | -18.6%
COc1ccc(S(=O)(=O)N2CC(C)N(C(=O)N(C)C)C2C)cc1 (stereo not given) | -1.9% | -13.5%
Cc1nn(C)c2nc(-c3cccs3)cc(C(F)(F)F)c12 | -8.4% | 5.2%
CC(NCCc1ccc(S(N)(=O)=O)cc1)C(=O)NCCc1ccc(F)cc1 (stereo not given) | 1.7% | -13.8%
Cc1ccccc1CSCC(=O)NCCSc1ccccn1 | 3.8% | 10.8%
CCc1nn(CCCC(=O)NC(C)c2ccccc2)c(=O)c2cc3occc3n12 (stereo not given) | ? | 6.8%
CC1(C)CN(C(Cc2ccccc2)C(N)=O)C1=O (stereo not given) | -0.4% | -7.8%
O=C(c1ccccc1)c1ccc(OCC(=O)N2CCOCC2)cc1 | -0.2% | -2.0%
Cc1ccc(S(=O)(=O)Oc2ccc(/C=C3/C(=N)N4C(=NC3=O)SN=C4S(C)(=O)=O)cc2)cc1 | -5.2% | -3.3%
COc1cccc(C(=O)C2CCCN(Cc3cccn3-c3ccccn3)C2)c1 (stereo not given) | ? | -10.2%
The results go on:
SMILES | DT40 TDP1 CPT | N370S GC
Cc1ccc(S(=O)(=O)Nc2ccccc2C(N)=O)cc1 | 12.6% | 6.1%
CC(=O)OCCN(CCCn1c(-c2ccncc2)nc2ccccc21)c1nc(CN2CCCCC2)cs1 | -8.3% | -5.3%
CCN1CCN(CCNC(=O)CCCCCn2c(=O)[nH]c3cc(C(=O)OC)ccc3c2=O)CC1 | 4.8% | 16.2%
Cc1c(C(=O)NCC(c2ccco2)N(C)C)oc2c(Cl)cccc12 (stereo not given) | ? | -6.9%
OCCC1CN(Cc2ccc3nsnc3c2)CCN1C1CCCC1 (stereo not given) | 1.1% | 2.9%
Cc1ccnc(NC(=O)CNC(=O)c2ccccc2)c1 | 46.1%[activator] | 2.5%
CCc1ccc(NC(=O)CSc2nnc(Cn3c(=O)sc4ccccc43)n2C)cc1 | ? | -7.6%
Cc1ccc(C(=O)C2OC(=O)C(C)(C)C(=O)C2(C)C)cc1 (stereo not given) | -12.1% | -2.1%
CCOc1ccccc1/C=C/C(=O)c1ccc(Cl)cc1 | ? | 17.7%
Cn1c(=O)c2c(nc(NCCCO)n2CCc2ccccc2)n(C)c1=O | -12.8% | -0.2%
CCOC(=O)c1ccccc1NC(=O)COC(=O)C(Cc1c[nH]c2ccccc12)NC(C)=O (stereo not given) | ? | -9.9%
CCCc1nc2sc(C(=O)OCC)c(N)c2c2c1COC(C)(C)C2 | ? | 7.5%
CCC(=O)Nc1cc(-c2nc3ncccc3o2)ccc1Cl | 2.8% | -0.1%
CCCc1nnc(NC(=O)CCCN2C(=O)c3ccccc3C2=O)s1 | ? | 12.4%
COc1ccc(S(=O)(=O)Nc2ccc(S(=O)(=O)N3CCCCC3)cc2)cc1OC | 1.5% | 20.5%
N#CC1(c2c(O)nc3n(c2=O)CCCS3)CCCCC1 | -20.4% | 1.4%
Cc1ccc(N(C)C(=O)C2CCN(S(=O)(=O)c3ccc4c(c3)oc(=O)n4C)CC2)cc1 | ? | -5.7%
CC1(C)Cc2c(c(N3CCOCC3)nc3sc(C#N)c(N)c23)CS1 | 0.2% | 9.9%
COc1ccc(NC(=O)N2CCNC(=O)C2CC(=O)Nc2ccc(F)cc2)cc1 (stereo not given) | 14.7% | -0.3%
Nc1nc(=S)n(-c2ccccc2)[nH]1 | -0.3% | ?
CCn1c(C)nnc1SCC(=O)Nc1ccccc1OC | 12.9% | 7.5%
Cc1ccc(S(=O)(=O)N2CCOCC2)cc1C(=O)N1CCN(S(=O)(=O)c2cccs2)CC1 | -14.2% | -2.8%
CCCCN(CCCC)S(=O)(=O)c1ccc(C(=O)Nc2nnc(CSC)o2)cc1 | 14.6µM* | 2.2%
CCOc1ccc(S(=O)(=O)NCCSc2ccccc2)cc1 | -6.7% | 3.1%
Cc1c(NC(=O)Nc2ccc(Cl)c(Cl)c2)c(=O)n(-c2ccccc2)n1C | ? | 9.5%

Part of the list above in order of heavy-atom count, rising:
SMILES | DT40 TDP1 CPT | N370S GC
N#CC1(c2c(O)nc3n(c2=O)CCCS3)CCCCC1 | -20.4% | 1.4%
CCCc1nnc(NC(=O)CCCN2C(=O)c3ccccc3C2=O)s1 | ? | 12.4%
COc1ccc(NC(=O)N2CCNC(=O)C2CC(=O)Nc2ccc(F)cc2)cc1 (stereo not given) | 14.7% | -0.3%
CCN1CCN(CCNC(=O)CCCCCn2c(=O)[nH]c3cc(C(=O)OC)ccc3c2=O)CC1 | 4.8% | 16.2%
CC(=O)OCCN(CCCn1c(-c2ccncc2)nc2ccccc21)c1nc(CN2CCCCC2)cs1 | -8.3% | -5.3%

Next section
SMILES | DT40 TDP1 CPT | N370S GC
COc1cccc(Nc2nnc(SCc3nc4ccccc4s3)s2)c1 | ? | 16.6%
COc1cc(CN2CCCC(CO)(Cc3cccc(Cl)c3)C2)cc(OC)c1O (stereo not given) | ? | -9.6%
O=C(Nc1ccc(N2CCN(C(=O)c3ccc(Cl)cc3)CC2)cc1)c1ccc(Br)o1 | ? | -13.9%
CN1CCN(C(=O)c2cc3nc(-c4ccc(Cl)cc4)cc(C(F)(F)F)n3n2)CC1 | -21.8% | 2.1%
CCC(OC(=O)CNS(=O)(=O)c1ccccc1)C(=O)c1ccccc1 (stereo not given) | 0.0% | -13.2%
c1ccc(-c2noc(CC3CCCCC3)n2)nc1 | -2.0% | 24.7%
CNCC(O)C(O)C(O)C(O)CO (stereo not given) | 11.6% | -12.9%
O=C(CN1CCCC1)N1c2ccccc2C=Cc2ccccc21 | 5.7% | -4.2%
CCCC(=O)c1ccc(N2CCN(S(=O)(=O)c3ccc(C)cc3)CC2)c(F)c1 | ? | -1.0%
CCOc1ccc(NC(=O)c2cccc(NC3=NC4CS(=O)(=O)CC4S3)c2)cc1 (stereo not given) | 6.9% | -13.0%
COc1ccc2nc3ccccc3nc2c1NC(=O)c1ccccc1Cl | ? | -8.2%
CCOc1ccccc1NC(=O)Cn1nc(-c2ccco2)ccc1=O | -1.3% | 3.6%
CCCCCOc1ccc(Br)cc1/C(C)=N/NC1=NCCN1 | 5.8µM* | -20.2%
COc1ccc(CN(C)C(=O)c2[nH]c(C)c(C(C)=O)c2C)cc1F | ? | -7.6%
CCOc1ccc(-n2c(C)c(C(=O)OC)c3cc(O)ccc32)cc1 | -21.9% | -6.9%
Cc1cccc(NC(=O)c2cnc3sccn3c2=O)c1 | 7.6% | ?
O=C(Cn1nnc(-c2ccc(Cl)cc2)n1)NCc1ccco1 | 1.6% | 5.3%
COc1ccc(-n2nc(C(=O)NCC(=O)NCCN(C)C)c3ccccc3c2=O)c(OC)c1 | 5.7% | -4.8%
CCc1ccc(-c2nc(CS(=O)CC(=O)NCCc3ccccc3)c(C)o2)cc1 (stereo not given) | -21.0% | 13.9%
N#CC1=C(N)C(C#N)(C#N)C(c2cccnc2)C2CN(C(=O)OCc3ccccc3)CC=C12 (stereo not given) | 16.4µM* | -20.8%
Nc1nc(SCC(=O)c2c(N)n(C3CC3)c(=O)[nH]c2=O)n[nH]1 | -4.0% | -2.1%
CCNC(=O)CN(c1ccc(C)cc1)S(=O)(=O)c1ccc(SC)cc1 | -24.0% | 4.6%
COc1ccc(C(=O)Nc2ccccc2C)cc1S(=O)(=O)N1CCOCC1 | 19.6% | 2.4%
Cc1cc(C=O)c(C)n1-c1ccc(Oc2ccc([N+](=O)[O-])cn2)cc1 | -10.6% | -29.5%
COC(=O)/C(C#N)=C/c1ccc(C)o1 | 12.1% | 0.2%
Further records follow.
SMILES | DT40 TDP1 CPT | N370S GC
O=C1CC(c2ccc(Cl)cc2)n2nc(N3C(=O)CCC3=O)nc2N1 (stereo not given) | -22.1% | 5.9%
O=C(N/C(=C/c1ccc(F)cc1)C(=O)N1CCCCC1)c1ccco1 | 4.4% | -2.4%
CC(C)(/C=N/O)N(O)C=C1C=CC(=O)C=C1 | 6.3% | -14.2%
CC(=O)c1ccccc1C(=O)NCc1cccnc1 | -2.6% | 0.5%
O=C(Cc1nnc(NC(=O)c2ccccc2)s1)N/N=C/c1ccco1 | 8.9% | -2.0%
COc1ccc(N(CC(=O)NC(C)(C)C)C(=O)CCC(=O)Nc2nccs2)c(OC)c1 | -1.0% | -3.7%
